Compound activity (PubChem)
Mtb H37Rv: M. tuberculosis H37Rv growth inhibitors, H37Rv strain (AID 1626); inhibition, % at 10 µM; hits with a dose series show IC50 in µM; actives 0.95% (n = 220,000); M. tuberculosis H37Rv growth inhibition; higher % means a stronger effect;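 active = confirmed in a dose series; inconclusive = inhibition above 80% but not taken into the dose series; inactive = below 80% or under 30% at every dose of the series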;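 note: bacteria incubated seven days before Alamar blue readout; 0% = bacteria only wells and 100% = bacteria with antibiotic wells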
Arbovirus anti: antivirals against arbovirus infection, primary screen, cell-based, full library, 10K replicate subset; arbovirus infection cell-based antiviral screen; inhibition, % at 10 µM; actives 0.37% (n = 200,000); AID 1251, 2008;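 active = inhibition from about 30%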;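 note: bluetongue infection of BSR cells; cell survival read as ATP light after 72 h; 0% = infected wells without compound and 100% = uninfected wells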
RecA splice inh: Mtb RecA intein splicing inhibitors, primary screen, biochemical, fluorescence, HTS; inhibition, %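 (about 9 µM by stock and volumes)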; AID 2221, 2009; actives 0.75% (n = 290,000); Protein RecA (Mycobacterium tuberculosis (strain ATCC 25618 / H37Rv)), P9WHJ3; cell-free RecA intein splicing; in the data active = inhibition above about 30%; inconclusive = no clear call, values can overlap the other calls;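 note: 0% = vehicle wells and 100% = reference inhibitor control wells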
Target sequence (P9WHJ3 whole entry, looked up, canonical isoform): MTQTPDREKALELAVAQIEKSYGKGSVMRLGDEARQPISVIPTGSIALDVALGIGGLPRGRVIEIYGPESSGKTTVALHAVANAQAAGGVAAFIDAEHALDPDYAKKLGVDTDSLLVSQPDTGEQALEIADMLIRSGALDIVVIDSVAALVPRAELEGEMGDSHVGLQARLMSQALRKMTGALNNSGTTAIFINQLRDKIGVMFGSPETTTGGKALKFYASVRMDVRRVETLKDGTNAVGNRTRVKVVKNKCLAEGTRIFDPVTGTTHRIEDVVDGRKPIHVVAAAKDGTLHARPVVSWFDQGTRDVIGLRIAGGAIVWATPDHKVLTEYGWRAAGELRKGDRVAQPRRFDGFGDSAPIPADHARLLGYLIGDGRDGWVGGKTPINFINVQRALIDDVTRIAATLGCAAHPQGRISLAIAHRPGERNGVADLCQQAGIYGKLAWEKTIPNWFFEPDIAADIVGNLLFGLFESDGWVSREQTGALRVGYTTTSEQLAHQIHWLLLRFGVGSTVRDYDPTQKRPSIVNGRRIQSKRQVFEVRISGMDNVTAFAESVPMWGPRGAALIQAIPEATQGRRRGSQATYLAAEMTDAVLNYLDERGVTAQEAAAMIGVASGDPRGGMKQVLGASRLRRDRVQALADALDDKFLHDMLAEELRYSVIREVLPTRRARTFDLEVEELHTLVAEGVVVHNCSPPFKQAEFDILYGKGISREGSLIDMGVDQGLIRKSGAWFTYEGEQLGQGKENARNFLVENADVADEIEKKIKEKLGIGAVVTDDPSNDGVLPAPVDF
Mtb betalactam: beta-lactam sensitization of Mtb H37Rv, H37Rv. M. tuberculosis H37Rv growth with meropenem, percent inhibition; hits of this screen are not shown here. inhibition, % at 25 µM. actives 0.27% (n = 330,000);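 active = about 74% or more and at least 40 points above the plate without the antibiotic, then above 30% in a dose series; inconclusive = first-round hits that could not be retested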;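 note: growth measured after seven days incubation then overnight dye step; 0% = bacteria only wells and 100% = bacteria with antibiotic; twin plates without the antibiotic show which effects depend on it; some results filed as inactive read as strong as hits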
YopH PTP inh: YopH tyrosine phosphatase inhibitors, primary screen, biochemical, fluorescence Ex485/Em525 | YopH tyrosine phosphatase [Yersinia enterocolitica] | inhibition, %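 (about 10 µM by stock and volumes)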 | actives 0.16% (n = 140,000);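 active = inhibition of 50% or more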;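 note: controls were vehicle for no effect and minimum signal wells for full effect; inactives centre near -20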
Arbovirus anti repeat: further read-out of Arbovirus anti, marked with its call; inhibition, %; measured here: 10K subset replicate screen; many hits read low in the repeat;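 first of two repeat runs on a subset; 0% = infected and 100% = uninfected wells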
Numbers without * were called inactive; ? = inconclusive; / = not tested or not shown.

Start of the data: the first 4 compounds, to show the layout:
SMILES	Mtb H37Rv	Arbovirus anti	RecA splice inh	Mtb betalactam	YopH PTP inh	others
CC(C)(C)C1CCc2c(sc3nc(SCC(=O)O)nc(N)c23)C1 (centres undefined)	-1%	/	2.7	33	/
COC(=O)NNC(=O)C12CC3CC(CC(C3)C1)C2	/	1	-5.1	-7	-26
CCN(c1ccccc1)S(=O)(=O)c1cc(NC(=O)Nc2ccccc2C#N)ccc1Cl	-9%	22	5.8	5	-35
COc1cc(C(=O)NCCC(=O)NC2CCCCC2)cc(OC)c1OC	/	/	-0.8	0	/

All compounds of this part, repeating the preview:
SMILES	Mtb H37Rv	Arbovirus anti	RecA splice inh	Mtb betalactam	YopH PTP inh	others
CC(C)(C)C1CCc2c(sc3nc(SCC(=O)O)nc(N)c23)C1 (centres undefined)	-1%	/	2.7	33	/
COC(=O)NNC(=O)C12CC3CC(CC(C3)C1)C2	/	1	-5.1	-7	-26
CCN(c1ccccc1)S(=O)(=O)c1cc(NC(=O)Nc2ccccc2C#N)ccc1Cl	-9%	22	5.8	5	-35
COc1cc(C(=O)NCCC(=O)NC2CCCCC2)cc(OC)c1OC	/	/	-0.8	0	/
Cc1cccc(C)c1NC(=O)CSc1nnc([C@@H]2CCCN2C(=O)OC(C)(C)C)o1	-11%	8	-3.5	7	-25	Arbovirus anti repeat=6
CC(=O)Nc1cc2c3c(c1)CCN3C(=O)CC2	/	/	2.0	-2	/
CC1(C)CC(=NO)CC(C)(C)N1	3%	-4	-1.3	3	-55
COc1ccc(N2C(=O)CSC23C(=O)N(CC(=O)NC2CCCC2)c2ccccc23)cc1 (centres undefined)	/	/	4.2	-2	/
Cc1ccc(C)c(NC(=S)NNC(=O)c2csc3c2CCC(C)C3)c1 (centres undefined)	2%	-17	12	5	-9
O=C(Nc1cccnc1)c1ccc(N2CCOCC2)c([N+](=O)[O-])c1	/	/	0.0	-5	/
O=C1CSC(=S)N1c1cccc(Br)c1	/	/	17	1	/
CCCc1cc(=O)oc2cc(OCC(=O)NCCc3c[nH]c4ccc(OC)cc34)ccc12	/	/	-1.9	-4	/
O=C(Cn1cnc2c(cnn2-c2ccccc2)c1=O)N1CCN(c2ccc(F)cc2)CC1	-7%	-8	1.9	24	-29
O=C(Cn1nnc(-c2ccccc2)n1)N/N=C/c1cccc([N+](=O)[O-])c1O	-3%	-14	0.4	5	/
COc1ccccc1CNS(=O)(=O)c1ccc2c(c1)NC(=O)CS2	/	/	3.3	-7	/
O=C(CSc1ccc(-c2cccs2)nn1)NCc1ccccc1Cl	2%	9	1.9	-4	-26
Cc1ccc(S(=O)(=O)N2CCN(C(=O)CN3C(=O)c4ccc([N+](=O)[O-])cc4C3=O)CC2)c(C)c1	/	/	-3.6	-5	/
CN(CC/C=C1/c2ccccc2CSc2ccccc21)CCCO	0%	-19	3.4	-8	-37
CCCCOC(=O)C1=C(C)NC2=C(C(=O)CCC2)C1c1cc(OC)ccc1OC (centres undefined)	/	-2	-7.3	-5	-50
C=CCNC(=O)c1onc(CSc2ccc(C)c(C)c2)c1C(=O)O	-5%	18	-3.7	25	-68
Cc1cnccc1CN(C)Cc1nc(Cc2ccccc2Cl)no1	2%	4	-0.8	-3	/
CCc1nnc(NC(=O)COC(=O)CN2C(=O)c3ccccc3C2=O)s1	2%	4	-2.6	-10	-10	Arbovirus anti repeat=6
CCc1sc(N(C(=O)Cc2ccccc2)c2ccccc2F)nc1-c1ccc(C)cc1	-8%	-9	2.3	-2	3
Cc1ccccc1CN(C)Cc1cc(=O)oc2c(C)c(C)ccc12	/	/	15	2	/
CC1CCc2nn(CC(=O)NCCCN3CCCCC3)cc2C1 (centres undefined)	-5%	0	0.3	1	-22	Arbovirus anti repeat=1
O=C(O)c1ccccc1C(=O)NC1CCCCNC1=O (centres undefined)	-4%	/	-2.7	1	/
COc1ccc(OC)c(S(=O)(=O)N2CCC(C(=O)Nc3ccccc3)CC2)c1	-1%	-3	-2.1	-10	/
CCN=C1NN=C(c2c[nH]c3ccccc23)CS1	-3%	-1	-0.7	-5	/
Cc1cc(O)c(C(C)C)cc1N=C1CSC(=O)N1	-10%	-3	7.3	-3	-44
CCn1cc(/C=C/C(=O)Nc2ccc(C)cc2Br)cn1	0%	22	1.3	3	-8
COc1ccc(CCNc2nc(-c3sc(N)nc3C)cs2)cc1OC	8%	-3	9.5	14	22
CC(C)Oc1ccccc1/C=N/Nc1ccccc1[N+](=O)[O-]	2%	7	1.1	11	-5
CC(=O)c1cnc(SCCN2C(=O)c3ccccc3C2=O)nc1C	-10%	9	-0.9	-4	0
O=S(=O)(NC1CCCCC1)c1cccs1	/	/	-0.4	-3	/
Cc1ccc(NC2=NC3(CCCC3)N=C(N)N2)c(C)c1	-1%	-3	-2.3	-2	/
Cc1ccc(NC(=O)C2CCN(S(=O)(=O)c3ccc4[nH]c(=O)ccc4c3)CC2)c(C)c1	/	/	0.8	-10	/
N#CCCN1CCN(C(=S)c2ccc(-c3cc(Cl)ccc3Cl)o2)CC1	/	9	8.3	16	-58
Cc1ccc(N(C(=O)CNC(=O)c2ccco2)C(C(=O)NC2CCCCC2)c2cccnc2)cc1 (centres undefined)	/	/	0.5	3	/
COc1cccc(/C=N/NC(=O)CSCC(=O)Nc2ccccc2)c1O	-11%	-30	-1.2	/	-57
COC(=O)CC1C(=O)NCCN1C(=S)Nc1cccc(C)c1 (centres undefined)	1%	10	-1.5	-5	10
CN1C(=O)CSC1=Nc1cccc(C(=O)O)c1	/	/	-3.3	-8	/
O=C(CSc1nc(C2CC2)nc2ccccc12)N1c2ccccc2Sc2ccc(C(F)(F)F)cc21	-2%	1	2.5	-18	-49
CCOC(=O)c1ccc(NC(=O)c2ccc[n+]([O-])c2)cc1	/	/	0.4	2	/
O=S(=O)(c1cccs1)N1CCC2(CC1)OCCN2S(=O)(=O)c1ccccc1	/	/	-4.1	-4	/
O=C(CN(CCc1ccccc1)C(=O)CNS(=O)(=O)c1ccc(F)cc1)NCc1ccco1	-3%	-4	-0.6	1	-37
COC(=O)c1ccccc1Sc1ncnc2onc(C)c12	15µM*	-5	46*	99	/
CCN(CC)C(=O)Sc1cccc2cccnc12	-6%	3	-1.2	6	-44
Cc1ccc(S(=O)(=O)N(C)c2ccc(C(=O)N3CCc4ccccc4C3)cc2)cc1	7%	-6	9.6	-8	/
CC1CCN(CC(O)COC2CCC(C(C)(C)C)CC2)CC1 (centres undefined)	-2%	8	/	-5	-31
O=C(NCC1CCCO1)c1ccc(NC(=O)C2CCCCC2C(=O)O)cc1 (centres undefined)	-2%	-2	-1.8	-1	-44
Going on with the list.
SMILES	Mtb H37Rv	Arbovirus anti	RecA splice inh	Mtb betalactam	YopH PTP inh	others
C/C=C/c1ccc(OCCCCOc2ccccc2F)c(OC)c1	10%	8	0.9	14	-49
FC(F)(F)c1cnc(Oc2ccccc2-c2nnc(-c3ccc(Cl)cc3)o2)c(Cl)c1	9%	11	18	-16	-16
COc1cc(CNC(C)(C)C)ccc1OCC(=O)NC(C)(C)C	5%	10	-6.8	-8	/
O=C(Cc1ccccc1)N/N=C/c1cccc([N+](=O)[O-])c1	5%	0	-1.3	4	/
COc1ccc(C(=O)CCc2nc3ccccc3s2)cc1	12%	-1	4.2	1	-27
O=C(O)C1CCCCC1C(=O)NCc1ccncc1 (centres undefined)	-2%	-1	-0.4	-3	-21
CCc1ccccc1NC(=O)Cn1nnc(-c2cccs2)n1	0%	-1	-0.4	0	-23
Cc1ccccc1C(=O)NC1CCSC1=O (centres undefined)	3%	/	2.3	-12	/
CC(C)c1cccc(C(C)C)c1NC(=O)CCl	2%	11	23	2	/
O=C(CCc1nc2ccccc2c(=O)[nH]1)OCC(=O)c1ccc(C2CCCCC2)cc1	-7%	-2	9.5	2	-20
N#Cc1c(NC(NC(=O)c2ccco2)C(=O)c2ccccc2)sc2c1CCCC2 (centres undefined)	44%	-8	1.5	5	0
CC1=C/C(=C(/c2cc(C)c(O)c(Br)c2)c2ccccc2S(=O)(=O)O)C=C(Br)C1=O	/	/	9.8	18	/
CCCn1c(=O)c2c(c3ccccc31)OCC(=O)N2	-4%	8	-5.2	-3	-32
CC(=O)Nc1ccc(NS(=O)(=O)c2ccccc2)c2ccccc12	/	/	0.5	7	/
Cn1nc(C(F)(F)F)c(/C=N/OC(=O)c2ccccc2)c1Sc1ccc(Cl)cc1	-2%	27	2.8	1	1
CCOC(=O)C1=C(C)n2c(s/c(=C3\C(=O)Nc4ccccc43)c2=O)=NC1c1ccc(OC)cc1 (centres undefined)	-1%	8	-0.1	10	-30
COc1ccc(N2CCN(C(=O)CCNS(=O)(=O)c3ccc4c(c3)CCC(=O)N4)CC2)cc1	-8%	3	/	0	-22
C=CCn1c(SCC(=O)Nc2ccc(C)cc2C)nnc1-c1cccnc1	5%	9	-0.2	3	-15
COCCCN(C(=S)Nc1cc(Cl)cc(Cl)c1)C(C)c1ccncc1 (centres undefined)	-1%	4	3.7	8	-11
CCn1c(C(=O)N2CCCC(C(=O)NCCc3ccc(C)cc3)C2)cc2sccc21 (centres undefined)	-1%	2	/	4	-5

Gathered by group, the entries above with bromine
SMILES	Mtb H37Rv	Arbovirus anti	RecA splice inh	Mtb betalactam	YopH PTP inh	others
O=C1CSC(=S)N1c1cccc(Br)c1	/	/	17	1	/
CCn1cc(/C=C/C(=O)Nc2ccc(C)cc2Br)cn1	0%	22	1.3	3	-8
CC1=C/C(=C(/c2cc(C)c(O)c(Br)c2)c2ccccc2S(=O)(=O)O)C=C(Br)C1=O	/	/	9.8	18	/

Continued.
SMILES	Mtb H37Rv	Arbovirus anti	RecA splice inh	Mtb betalactam	YopH PTP inh	others
Cc1cccc(C)c1NC(=O)NC1(C(=O)N2CCOCC2)CCCCC1	1%	1	-1.7	-9	/
COc1ccc(CCNC(=O)COc2cc(=O)n(C)c3ccccc23)cc1OC	-6%	0	-1.9	5	/
NS(=O)(=O)c1cc(C(=O)OCC(=O)c2ccccc2)c(Cl)cc1Cl	-2%	1	2.3	2	/
Cc1cc(C)c(C#N)c(SCC(=O)Nc2ccc3c(c2)OCO3)n1	6%	-6	-0.5	9	-5
COCC(=O)NC1CCN(S(=O)(=O)c2ccc(C(=O)O)cc2)CC1	-5%	-1	0.8	14	-8
COc1ccc(C(C)N2CC34C=CC(O3)C(C(=O)O)C4C2=O)cc1 (centres undefined)	/	3	-3.2	-5	-33
COC(=O)c1ccc(COc2ccccc2/C=C(\C#N)C(=O)NC(C)C)cc1	5%	11	0.3	2	-48
CC(=O)N1c2ccc(S(=O)(=O)NCC3CCC(C(=O)N4CCC(C)CC4)CC3)cc2CC1C (centres undefined)	/	/	-2.4	3	/
O=C(NC1=NCCS1)c1cccc(N2C(=O)c3ccccc3C2=O)c1	-3%	5	5.3	-2	/
Cc1ccc(N=C2SCCCN2C(=O)c2ccco2)cc1Cl	-1%	3	2.6	1	-6	Arbovirus anti repeat=2
O=C(Cn1nc2ccccc2n1)N/N=C/c1cc(Cl)cc([N+](=O)[O-])c1O	8%	5	/	/	/
COc1ccc(CNS(=O)(=O)c2ccc3c(c2)NC(=O)C(C)S3)cc1 (centres undefined)	/	/	-4.0	2	/
CCc1ccc(CCC(=O)Nc2ncc(Cc3ccccc3Cl)s2)o1	7%	-27	11	4	-39
Cc1cccc(NC(=O)CSc2nnc(-c3ccccc3)n2N)c1C	-8%	-8	-0.2	-14	-39	Arbovirus anti repeat=-2
CC(C)(C)c1ccc(C(=O)NN2CCOCC2)cc1	/	/	-0.9	-17	/
O=C(NCc1ccco1)c1cccnc1-c1nc2ccccc2s1	/	-2	10.0	10	-21
O=C(COC(=O)c1c(F)cccc1F)c1ccc[nH]1	-2%	/	1.2	3	/
FC(F)Oc1ccccc1C1CC(c2ccc(Br)s2)Nc2ncnn21 (centres undefined)	11%	2	/	81	-39
O=C(Cn1c(C(F)(F)F)nc2ccccc21)Nc1ccccc1C(=O)O	4%	3	1.7	-11	/
Cc1cc(C)c2nc(C)cc(N/N=C/c3ccc(O)cc3)c2c1	/	/	-8.8	100	/
NC(=O)[C@@H]1CC2(CC(c3cccc(NC(=O)COc4ccc(Cl)cc4)c3)=NO2)CN1C(=O)c1ccccc1 (some centres undefined)	-2%	/	6.8	-2	/
CN(c1ccccc1)c1nc(N)c(C#N)c(CC#N)c1C#N	6%	-2	-2.2	-7	-21
COc1cc(CCC(=O)OCC(=O)Nc2ccccc2C(C)C)cc(OC)c1OC	-1%	1	-4.6	2	-23
CCCS(=O)(=O)Nc1cc(C(F)(F)F)ccc1OCCOC	-5%	5	0.4	?	-56
COc1ccc(C)c2sc(N3CCCC3)nc12	-8%	9	-11	-2	-42
CCSc1nnc(NC(=O)CCc2ccccc2)s1	7%	1	-11	-3	-28	Arbovirus anti repeat=-2

An excerpt; rates above refer to the full screens.
